Source: PubChem (Fisher Drug Discovery Resource Center)
NPYLR7 ag – activates Aedes aegypti NPYLR7 receptor | HEK293T NPYLR7/Galpha15, GCaMP6s calcium fluorescence | activation, % at 10 µM | hit rate 0.15% among 270,000 | AID 1259423; in the data active = activation above about 40%;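 also: 0% = vehicle and 100% = reference agonist at the receptor; some compounds past the cut are filed as inactive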
NPYLR7 ag max-min – recorded beside NPYLR7 ag, whose call it bears; activation, %; measured here: Max-Min RFU normalised activation; some inactives read as strong as hits;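 span of the calcium signal over five minutes; 0% = vehicle and 100% = native peptide agonist; compound fluorescence can raise it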
* marks the source's active call; other numbers are inactive results. Some of the compounds tested; count on the stated rates, not on these rows.

Start of the data: the first 2 entries as a preview:
Screening Cc1noc(C)c1C(=O)NCCc1ccccc1F returned NPYLR7 ag 10 and NPYLR7 ag max-min 2.
`COc1cc(C2=NC(=Cc3cc(OC)c4c(c3)OCCO4)C(=O)O2)cc(OC)c1OC` gave NPYLR7 ag 2 and NPYLR7 ag max-min 15.

The listing (from the top)
Screening Cc1noc(C)c1C(=O)NCCc1ccccc1F returned NPYLR7 ag 10 and NPYLR7 ag max-min 2.
`COc1cc(C2=NC(=Cc3cc(OC)c4c(c3)OCCO4)C(=O)O2)cc(OC)c1OC` gave NPYLR7 ag 2 and NPYLR7 ag max-min 15.
C=CCN(CC(=O)N(CCc1ccc(OC)c(OC)c1)Cc1ccc(C)o1)C(=O)c1ccco1 was read as NPYLR7 ag 1 and NPYLR7 ag max-min 0.
Cc1nnc(Sc2c(C#N)c(=O)n(C)c(=O)n2C)n1Cc1ccccc1 was read as NPYLR7 ag -2 and NPYLR7 ag max-min -1.
Screening CCCCc1ccc(C(=O)N(CC(=O)N(Cc2cccn2Cc2cccc(OC)c2)C(C)(C)C)CC(C)C)cc1 returned NPYLR7 ag 1 and NPYLR7 ag max-min 6.
For Cc1cc(=O)n2c3ccccc3n(CC(O)CNc3ccc(F)cc3)c2c1C#N (stereo unspecified) the results were NPYLR7 ag -5 and NPYLR7 ag max-min -10.
For O=C(O)c1cn(-c2ccc(F)cc2)c2cc(N3CCNCC3)c(F)cc2c1=O the results were NPYLR7 ag -9 and NPYLR7 ag max-min -12.
For CN1CCN(CC(=O)N2CCN(C(=O)c3ccco3)CC2)CC1 the results were NPYLR7 ag 0 and NPYLR7 ag max-min -1.
Screening COCCNC(=O)c1coc(CN(Cc2cccc(C(F)(F)F)c2)Cc2cccc(OC)c2OC)n1 returned NPYLR7 ag -11 and NPYLR7 ag max-min -2.
`Cc1cccc(N(C)C(=O)c2cccc(NC(=O)C3CCCO3)c2)c1` (stereo unspecified) gave NPYLR7 ag -1 and NPYLR7 ag max-min -4.
For CCOc1ccccc1NC(=O)N1CCN(c2nc(C(C)C)nc3sc4c(c23)CCCC4)CC1 the results were NPYLR7 ag -10 and NPYLR7 ag max-min -9.
For Cc1nc(SCc2nc(-c3ccccc3OCc3ccccc3)no2)[nH]c(=O)c1C the results were NPYLR7 ag 0 and NPYLR7 ag max-min -3.
`CC(O)CN(Cc1ccc(F)cc1)CC1CCCO1` (stereo unspecified) gave NPYLR7 ag -3 and NPYLR7 ag max-min 6.
COc1ccccc1OC1CN(Cc2ccccn2)C1 was read as NPYLR7 ag 3 and NPYLR7 ag max-min 3.
Screening O=C(Nc1ccc(Cl)c(C(F)(F)F)c1)N1CCC(c2ccccc2)CC1 returned NPYLR7 ag -3 and NPYLR7 ag max-min -4.
COc1cccc(-c2nc(C=Nc3cc(Cl)ccc3Cl)c(O)o2)c1 was read as NPYLR7 ag -1 and NPYLR7 ag max-min -8.
Screening Cc1ccc(N2C(=O)CC(NCCc3ccccc3F)C2=O)cc1 (stereo unspecified) returned NPYLR7 ag -2 and NPYLR7 ag max-min -10.
Screening CCc1c(C(=O)NCc2ccco2)c(C)nn1-c1ccccc1C returned NPYLR7 ag -4 and NPYLR7 ag max-min -2.
`CNCC1CC(c2ccc(F)cc2)=NO1` (stereo unspecified) gave NPYLR7 ag 0 and NPYLR7 ag max-min -5.
Screening O=c1c2nnn(-c3cccc(Cl)c3)c2ncn1Cc1cccc(C(F)(F)F)c1 returned NPYLR7 ag 0 and NPYLR7 ag max-min 4.
O=C(NCCCN1CCOCC1)c1ccc(-c2cc(-c3ccc(Cl)cc3Cl)[nH]n2)cc1 was read as NPYLR7 ag 9 and NPYLR7 ag max-min 2.
For COC(=O)CNC(c1ccccc1)c1cc(C)ccc1N (stereo unspecified) the results were NPYLR7 ag -4 and NPYLR7 ag max-min -6.
Cc1ccc(S(=O)(=O)Nc2ccc(F)cc2)cc1C(=O)NC1CC1 was read as NPYLR7 ag 6 and NPYLR7 ag max-min 2.
`Cc1cccc(CCNC(=O)C2CCN(C(=O)N3CCCC3)CC2)c1` gave NPYLR7 ag 12 and NPYLR7 ag max-min 6.
Screening Cc1ccc(S(=O)(=O)Nc2ccc([N+](=O)[O-])cc2C(N2CCOCC2)N2CCOCC2)cc1 returned NPYLR7 ag -6 and NPYLR7 ag max-min -8.
Screening O=C(Nc1ccc(N2CCC(Cc3ccccc3)CC2)c(C(=O)NCCN2CCOCC2)c1)c1ccccc1Br returned NPYLR7 ag -4 and NPYLR7 ag max-min 8.
Screening Brc1ccc(-c2nc3ncccn3c2Nc2ccc3c(c2)OCCO3)o1 returned NPYLR7 ag 9 and NPYLR7 ag max-min 0.
Screening O=S(=O)(NC1(c2cccc(F)c2)CCOCC1)N1CCCCC1 returned NPYLR7 ag 0 and NPYLR7 ag max-min -3.
Screening CCc1ccc(C(=O)N2CCC3(CC2)NC(C(=O)NCCc2ccc(Cl)cc2Cl)CS3)cc1 (stereo unspecified) returned NPYLR7 ag -6 and NPYLR7 ag max-min -7.
For Cc1nc(C)c(CN2CCC2(C)C)s1 the results were NPYLR7 ag 16 and NPYLR7 ag max-min 8.
For COc1ccc(S(=O)(=O)NCCCn2ncccc2=O)cc1 the results were NPYLR7 ag -7 and NPYLR7 ag max-min -12.
O=C(O)C1Sc2[nH]c(=O)sc2C2c3ccc(O)cc3OC(=O)C12 (stereo unspecified) was read as NPYLR7 ag 11 and NPYLR7 ag max-min 7.
Screening CC(=O)c1ccccc1NC(=O)CC(C(=O)O)c1ccc(F)cc1 (stereo unspecified) returned NPYLR7 ag 5 and NPYLR7 ag max-min 2.
Screening COc1cccc(CNC(=O)CSc2ccc(NC(=O)c3cccc(F)c3)nn2)c1 returned NPYLR7 ag 0 and NPYLR7 ag max-min -2.
For Cc1ccc(C2=NC(C)(C)N(C(=O)c3ccccc3)C2=S)cc1 the results were NPYLR7 ag 3 and NPYLR7 ag max-min 1.
Screening CC(Cc1cccnc1)NC(=O)CCc1nnc(C2(c3ccc(Cl)cc3)CCC2)o1 (stereo unspecified) returned NPYLR7 ag 1 and NPYLR7 ag max-min -1.
Screening CC(C)Oc1cccc(C(=O)C2CCCN(C(=O)c3ccccn3)C2)c1 (stereo unspecified) returned NPYLR7 ag -3 and NPYLR7 ag max-min -3.
For Cn1cc(S(=O)(=O)N2CCSc3ncccc32)c(=O)n(C)c1=O the results were NPYLR7 ag 0 and NPYLR7 ag max-min -2.
`COCCN(Cc1csc(COc2ccc(Cl)cc2)n1)C(C)=O` gave NPYLR7 ag -3 and NPYLR7 ag max-min 0.
`CCNC(=O)NC1CCN(c2ccccc2C(=O)NCC2CCCO2)CC1` (stereo unspecified) gave NPYLR7 ag 0 and NPYLR7 ag max-min 0.

Reprinted at random: seven compounds from above.
`Cc1cccc(CCNC(=O)C2CCN(C(=O)N3CCCC3)CC2)c1` gave NPYLR7 ag 12 and NPYLR7 ag max-min 6.
O=C(NCCCN1CCOCC1)c1ccc(-c2cc(-c3ccc(Cl)cc3Cl)[nH]n2)cc1 was read as NPYLR7 ag 9 and NPYLR7 ag max-min 2.
Screening Cc1noc(C)c1C(=O)NCCc1ccccc1F returned NPYLR7 ag 10 and NPYLR7 ag max-min 2.
Screening O=S(=O)(NC1(c2cccc(F)c2)CCOCC1)N1CCCCC1 returned NPYLR7 ag 0 and NPYLR7 ag max-min -3.
Cc1nnc(Sc2c(C#N)c(=O)n(C)c(=O)n2C)n1Cc1ccccc1 was read as NPYLR7 ag -2 and NPYLR7 ag max-min -1.
For Cc1ccc(C2=NC(C)(C)N(C(=O)c3ccccc3)C2=S)cc1 the results were NPYLR7 ag 3 and NPYLR7 ag max-min 1.
Screening CCCCc1ccc(C(=O)N(CC(=O)N(Cc2cccn2Cc2cccc(OC)c2)C(C)(C)C)CC(C)C)cc1 returned NPYLR7 ag 1 and NPYLR7 ag max-min 6.

Remaining list, next part.
`CC(C)(C)C(=O)N1CCN(c2cc(N3CCOCC3)nc(N)n2)CC1` gave NPYLR7 ag 1 and NPYLR7 ag max-min -1.
O=C(Cn1cc(OCc2ccccc2F)c(=O)cc1CO)NCc1ccc(F)cc1 was read as NPYLR7 ag 4 and NPYLR7 ag max-min 1.
`Cc1ccc(CN(CCc2ccccc2)C(=O)CN(CCN2CCCC2)C(=O)c2ccco2)o1` gave NPYLR7 ag 4 and NPYLR7 ag max-min 5.
For CCN(CCC(F)(F)F)C(=O)Cc1ccccc1F the results were NPYLR7 ag 1 and NPYLR7 ag max-min -1.
For Cc1cccc(C2CC(c3ccc(C)c(C)c3)=Nc3nnnn32)c1 (stereo unspecified) the results were NPYLR7 ag 4 and NPYLR7 ag max-min 4.
Screening CCCCn1c(N)c(N(CC)C(=O)CC(C)(C)C)c(=O)[nH]c1=O returned NPYLR7 ag 4 and NPYLR7 ag max-min 1.
For COc1ccc(C)c2sc(N(CCCN(C)C)C(=O)c3cc(C)nn3C)nc12 the results were NPYLR7 ag 0 and NPYLR7 ag max-min 1.
For CN(C)C(=O)c1ccc(NC(=O)COc2ccc(F)c(Cl)c2)cc1 the results were NPYLR7 ag -3 and NPYLR7 ag max-min -4.
`COc1ccc(CC(=O)N2CCC(c3cn(Cc4ccc(C(F)(F)F)cc4)c4ccccc34)CC2)cc1` gave NPYLR7 ag 9 and NPYLR7 ag max-min 0.
For CN(C)c1cccc(C(NC(=O)C(C)(C)c2ccc(Cl)cc2)c2ccc(S(C)(=O)=O)cc2)c1 (stereo unspecified) the results were NPYLR7 ag -3 and NPYLR7 ag max-min -10.
Screening Cc1ccc(C2=NN(S(C)(=O)=O)C(c3cc4cc5c(cc4nc3Cl)OCO5)C2)cc1 (stereo unspecified) returned NPYLR7 ag 13 and NPYLR7 ag max-min 17.
O=C(CCN(c1nc(-c2cccs2)nc2ccccc12)C1CCCCC1)N1CCCC1 was read as NPYLR7 ag 4 and NPYLR7 ag max-min 6.
Screening Cc1ccc(C)c(-n2nc(-c3ccco3)cc2C(=O)N2CCN(c3cccc(Cl)c3)CC2)c1 returned NPYLR7 ag -3 and NPYLR7 ag max-min 12.
`C=CCN(C(=O)COc1ccc(Cl)cc1)C(C)C(=O)c1c(C)c(C(=O)OC)n(C)c1C` (stereo unspecified) gave NPYLR7 ag -11 and NPYLR7 ag max-min -1.
O=S1(=O)CCN2C(c3cc(Cl)ccc3Cl)=CSC2=N1 was read as NPYLR7 ag -2 and NPYLR7 ag max-min -5.
Cc1cc(C)c(NC(=O)C(C)OC(=O)c2ccccn2)c(C)c1 (stereo unspecified) was read as NPYLR7 ag -5 and NPYLR7 ag max-min -5.
For CN(CC(=O)N1CCOC(Cc2ccccc2Cl)C1)C1CCNCC1 (stereo unspecified) the results were NPYLR7 ag 7 and NPYLR7 ag max-min 7.
`O=C(c1c(Cl)cccc1Cl)N1CCc2ccccc2C1c1ccccc1Cl` (stereo unspecified) gave NPYLR7 ag 7 and NPYLR7 ag max-min 1.
CC1CCCC(C)N1NC(=S)Nc1ccc(OC(F)F)cc1 (stereo unspecified) was read as NPYLR7 ag 2 and NPYLR7 ag max-min 1.
`CC(C)Cn1cncc1CNC(=O)c1cccc2ccnn12` gave NPYLR7 ag 8 and NPYLR7 ag max-min 2.
For Cc1ccc2nc(SCC(=O)Nc3ccc(S(N)(=O)=O)cc3)[nH]c2c1 the results were NPYLR7 ag -1 and NPYLR7 ag max-min -10.
O=[N+]([O-])c1ccc(N2CCCc3ccccc32)c([N+](=O)[O-])c1 was read as NPYLR7 ag -5 and NPYLR7 ag max-min -11.
COCCN1C(=O)CC2(C1=O)C(=O)N(CCCOc1ccc(Cl)cc1)c1ccc(OC)cc12 (stereo unspecified) was read as NPYLR7 ag -14 and NPYLR7 ag max-min -19.
`COc1ccc(-n2nc(C)c(-c3ccccc3)c2NC(=O)CN(C(=O)NCc2ccccc2)C(C)C)cc1` gave NPYLR7 ag 1 and NPYLR7 ag max-min 8.
For Cc1cccc(-n2cc(-c3ccnc(NC(C)Cc4cccnc4)n3)cn2)c1 (stereo unspecified) the results were NPYLR7 ag 2 and NPYLR7 ag max-min 2.
For CCOC(=O)c1cc(-c2ccc(N3CCN(C(=O)c4cc(C)oc4C(F)(F)F)CC3)cc2)n(-c2ccc(F)cc2)n1 the results were NPYLR7 ag 24 and NPYLR7 ag max-min 7.
`O=C(Nc1sc2c(c1C(=O)Nc1ccc(Cl)cc1)CCCC2)c1ccccc1` gave NPYLR7 ag 1 and NPYLR7 ag max-min -4.
O=C(Cc1cccs1)NCc1nnnn1C1CCCCC1 was read as NPYLR7 ag 7 and NPYLR7 ag max-min 3.
For COC1CCCN(C(=O)CC2c3ccccc3CCc3ccccc32)C1 (stereo unspecified) the results were NPYLR7 ag 12 and NPYLR7 ag max-min 1.
`CCC(c1nnc(SCC(=O)NC(=O)NC(C)(C)C)o1)N(C)C` (stereo unspecified) gave NPYLR7 ag 2 and NPYLR7 ag max-min 8.
`NC(=O)c1ccc(NC(=O)COC(=O)c2ncc(Cl)c(Cl)c2Cl)cc1` gave NPYLR7 ag -4 and NPYLR7 ag max-min -6.
For O=C(COc1ccc2ccccc2c1)NC1CCCN(C(=O)C2CC2)C1 (stereo unspecified) the results were NPYLR7 ag -2 and NPYLR7 ag max-min -5.
O=C(/C=C/c1ccccc1)N1CCN(c2nc(N3CCOCC3)nc(-n3ccnc3)n2)CC1 was read as NPYLR7 ag -13 and NPYLR7 ag max-min -20.
COc1cccc(C(=O)N2CCc3ccccc3C2c2ccc(F)cc2)c1 (stereo unspecified) was read as NPYLR7 ag 1 and NPYLR7 ag max-min 6.
